Bfl-1 A1 inh: inhibitors of the anti-apoptotic protein A1, read as caspase activation; AID 2462; MEF A1-2A-BIM cells, Caspase-Glo 3/7 luminescence, 3 h; percent of clofoctol response, vehicle zero; actives 0.066% (n = 330,000); caspase activation, % (concentration not given with the values);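 active = over half of replicate activation scores above 10%, or exactly half above 10 with the replicate mean above 10; inconclusive = replicate mean below 10 yet half the replicates above 10; inactive = over half of replicates below 10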;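 note: wells of about 30 µL received 50 nL stock; many hits fall short of the cut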
Beta apoptosis: blocks beta cell apoptosis. INS-1E cytokine-induced death, ATP luminescence, 48 h; percent of positive-control rescue, neutral wells zero. actives 0.8% (n = 300,000). protection from apoptosis, % (concentration not given with the values);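 active = all replicates at 75% or more, or half of them and the mean; inconclusive = half reach 75% but not the mean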;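 note: 0% = cytokine-treated negative control wells and 100% = positive control rescue; higher means more ATP so stronger rescue from cytokine killing; wells of about 40 µL received 100 nL stock; the first replicate is given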
MLL AF4-AF9 inh: blocks AF4 peptide binding to human AF9. P42568. AlphaScreen, biotin-AF4 peptide binding to FLAG-AF9. inhibition, % at 10 µM. actives 0.47% (n = 350,000);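 active = every replicate reaching a set inhibition limit, whatever the replicate mean, cut at about 25% in these data; inconclusive = mean inhibition reaches that limit but some replicates miss it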;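 note: 0% = plate neutral control median and 100% = total signal loss; the record names both 10 and 1 µM as test concentration; the first replicate is given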
Target sequence (P42568 whole entry, looked up): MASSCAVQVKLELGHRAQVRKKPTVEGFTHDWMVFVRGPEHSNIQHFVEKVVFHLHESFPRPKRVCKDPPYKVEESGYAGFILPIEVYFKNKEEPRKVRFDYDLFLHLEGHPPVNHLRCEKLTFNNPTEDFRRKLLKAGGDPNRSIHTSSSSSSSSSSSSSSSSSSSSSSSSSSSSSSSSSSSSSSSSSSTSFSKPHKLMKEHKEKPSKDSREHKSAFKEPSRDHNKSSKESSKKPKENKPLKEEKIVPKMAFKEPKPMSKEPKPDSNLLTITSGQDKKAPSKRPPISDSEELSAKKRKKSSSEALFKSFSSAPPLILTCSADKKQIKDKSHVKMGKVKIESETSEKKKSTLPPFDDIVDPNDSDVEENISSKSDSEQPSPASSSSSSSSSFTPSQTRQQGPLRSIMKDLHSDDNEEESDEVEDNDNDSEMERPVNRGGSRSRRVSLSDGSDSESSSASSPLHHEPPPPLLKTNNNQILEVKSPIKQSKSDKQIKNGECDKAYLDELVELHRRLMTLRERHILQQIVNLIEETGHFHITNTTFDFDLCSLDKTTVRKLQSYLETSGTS
rRNA inh HTS: inhibits bacterial ribosomal RNA function over humanized ribosomes. GFP signal change (wild-type ribosome), % (test concentration not listed). actives 1.6% (n = 350,000). E. coli WT GFP vs humanized-ribosome RFP mutants, fluorescence, 24 h; active compounds read low; DMSO median 0, no signal -100;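 active = significant combined selectivity score with lowered wild-type GFP, culture density cut under 30%, mutant RFP and density less affected; inactive = any of these conditions unmet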; note: one replicate is shown; some compounds called inactive have numbers as strong as hits
T cruzi inh: T. cruzi replication inhibition; T. cruzi beta-gal in NIH3T3, luminescence, 90 h; inhibition, % (no concentration beside the values); actives 1.4% (n = 300,000);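 active = mean inhibition across valid replicates above about 55%, limit read from the data; inconclusive = mean below that limit but half or more replicates reach it; inactive = mean below it, under half of replicates reach it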;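 note: signal also drops with host cell toxicity which is not excluded here; 0% = plate median of DMSO wells and 100% = zero luminescence signal; higher percent means less beta-gal luminescence so fewer parasites; stock transfer was 50 nL into about 50 µL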
Calb FLC: C. albicans growth modulation with fluconazole | C. albicans CaCi-2 (fluconazole-resistant clinical isolate) + fluconazole, Alamar Blue growth, 48 h | growth inhibition, % (concentration not given with the values) | actives 0.57% (n = 300,000);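 active = most replicates above 75%; inconclusive = exactly half above 75%; inactive = most below 75%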;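 note: all wells also contain fluconazole at 8 µg/ml as a sub-toxic cotreatment; 0% = median of DMSO wells and 100% = median of geldanamycin control wells; wells of about 8 µL received 7.5 nL stock; the first replicate is given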
Vif A3G: HIV-1 Vif–A3G interaction blockers – biochemical, TR-FRET, GST-Vif 1-94, biotin-A3G peptide, dose response retest, primary screen (AID 1117319); TR-FRET GST-Vif / biotin-A3G peptide binding; higher % means a stronger effect; test concentration not given here; strong numbers were not always called active; inhibition, %, or IC50 in µM where a hit was titrated; actives 0.57% (n = 260,000);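 active = above the screen mean plus three standard deviations and confirmed in dose response; inconclusive = results disagree or hit not tested in dose response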;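 note: Vif residues 1-94 fused to GST binding biotinylated APOBEC3G peptide 110-148; 0% = full assay without inhibitor and 100% = GST in place of GST-Vif; retest series ran down from 100 µM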
RanGTP-Impb inh: disruptors of Ran-importin-beta complex formation – biochemical, FRET, CFP-Ran, YFP-importin-beta, homogeneous, primary screen | cell-free CFP-Ran/YFP-importin-beta FRET ratio | actives 1.1% (n = 300,000) | inhibition, % (no concentration beside the values);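 active = most replicates above 15%; inconclusive = exactly half above 15%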;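 note: 0% = DMSO wells and 100% = Ran loaded with GDP instead of GTP; wells of about 40 µL received 100 nL stock; the first replicate is given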
rRNA inh HTS OD600: further read-out of rRNA inh HTS, marked with its call; OD600 change, %; measured here: OD600 growth;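 optical density of the mix in the first replicate; 0 = DMSO median and -100 = no signal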
rRNA inh HTS RFP: recorded beside rRNA inh HTS, whose call it bears; RFP signal change, %; measured here: RFP humanized mutant strains;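 first replicate; 0 = DMSO median and -100 = no signal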
The depositor's hits bear a star; u = inconclusive; x = not tested or not shown; & = joins results of further samples. Not all compounds are listed. The share of hits here may be higher or lower than overall.

SMILES	Bfl-1 A1 inh	Beta apoptosis	MLL AF4-AF9 inh	rRNA inh HTS	rRNA inh HTS OD600	rRNA inh HTS RFP	T cruzi inh	Calb FLC	Vif A3G	RanGTP-Impb inh
Cn1c(=O)n(CC(=O)Nc2cccnc2)c2ccccc21	-0.6	-4	x	x	x	x	-4	0	2%	2.7
O=C(O)c1ccc(N/N=C/C(Br)=C/c2ccccc2)cc1	-6.5	0	7.6	-9	3	-2.1	-28	2	11%	-0.5
COCc1cc(=O)n2[nH]c(-c3cccs3)cc2n1	-1.2	2	-2.6	0	2	1.2	0	-3	x	0.6
O=C(CCc1nc2ccccc2[nH]c1=O)N/N=C/c1ccccc1	0.6	x	-7.8	12	2	1.4	-9	-4	4%	-1.6
O=c1c(Cc2c(F)cccc2Cl)c(O)ccn1CC1CCCO1 (stereo unspecified)	-0.3	-4	1.1	0	-3	-5.0	-12	-6	-7%	-3.0
CN(C)c1ccc(NC(=O)COC(=O)c2cc(=O)c3ccccc3o2)cc1	0.3	-3	-10	8	10	1.5	-10	20	2%	4.1
COc1ccc(NC(=O)CSc2nc3ccccc3nc2N2CCCC2)cc1Cl	-0.1	6	-0.6	-2	-1	7.2	9	-1	x	2.6
CCOC(=O)c1cc(CN2CCOCC2)oc1-c1ccccc1	-0.1	-15	x	x	x	x	2	-3	-1%	-5.9
O=C1CCC(=O)N1c1ccc(NCc2ccccc2Cl)c([N+](=O)[O-])c1	-2.3	x	x	x	x	x	-5	-4	1%	1.6
O=C(c1ccco1)N1CCN(C2CCCC2)CC1	0.7	0	x	x	x	x	11	0	0%	2.1
Cn1cnc(C(=O)N2CCN(c3ccccc3)CC2)c1C(=O)N1CCN(c2ccccc2)CC1	1.0	-6	-40	8	11	-1.9	x	x	x	x
C=CCN(CC(=O)NCc1ccc(F)cc1)C(=O)c1csnn1	0.5	-3	x	x	x	x	1	18	-1%	2.2
O=C(NC(=S)N1CCN(C/C=C/c2ccccc2)CC1)c1ccco1	0.8	-4	1.7	5	3	2.1	1	-7	0%	0.5
S=C(NCCSCc1ccc(Cl)c(Cl)c1)Nc1ccccc1	1.2	-3	x	x	x	x	2	-13	2%	-1.1
CC1CCCCN1C(=O)CSc1nnc(-c2ccc(Cl)s2)o1 (stereo unspecified)	0.1	-3	x	x	x	x	17	-3	22%	3.2
COc1ccccc1CN(Cc1cc2cc(C)ccc2[nH]c1=O)Cc1nnnn1Cc1ccco1	-0.4	0	x	x	x	x	29	-11	33%&0%	-0.7
Cc1ccc(-c2nc(N)sc2CC(=O)OCC(=O)NC2CCCC(C)C2C)cc1 (stereo unspecified)	0.8	-3	5.5	-3	4	-0.4	2	0	10%	-0.2
CC1CCCCC1NC(=O)COC(=O)C12CC3CC(CC(Cl)(C3)C1)C2 (stereo unspecified)	0.7	-2	-3.0	20	14	3.7	-1	-18	-13%	-0.8
C=CCNC(=O)CC(=O)N/N=C/c1cccs1	0.0	-3	-0.6	24	23	4.0	-5	6	1%	5.5
CN(C)c1nc(N)ncc1-c1ccc(Oc2ccccc2)cc1	1.6	3	-1.1	-12	-9	-2.5	70*	45	-8%	-1.7
CCC(Sc1ncccc1C(=O)OC(C)C)C(=O)NCc1ccco1 (stereo unspecified)	-1.2	-4	x	x	x	x	5	-10	0%	-0.4
COc1ccc(C(=O)Nc2ccccc2C(=O)N2CCCCCC2)cc1OC	0.1	-3	1.1	-6	-3	-0.6	-4	0	1%	-4.6
CS(=O)(=O)NN1C(=O)c2ccccc2NC1c1cccs1 (stereo unspecified)	0.2	-5	0.3	6	5	-7.2	3	4	1%	-1.0
COc1ccc(OC)c(CNC(=O)CCn2nc(C)c3c(C)n(-c4ccccc4)nc3c2=O)c1	0.4	4	-0.6	4	10	-1.9	8	-33	x	0.4
Brc1c(CSc2nncc3ccccc23)nc2ccccn12	-2.2	-10	1.0	-27	-30	-2.4	12	5	0%	2.0
CCOC(=O)N1CCN(c2c(NCc3ccc(F)cc3)c(=O)c2=O)CC1	0.8	18	-2.5	-6	3	-0.6	6	-1	10%	2.8
Cc1cc(N2CCN(C)CC2)nc2ccc(NC(=O)CCC(=O)NCc3ccco3)cc12	1.4	0	x	11	11	4.2	43	0	6%	3.2
Cc1ccc(-c2noc(CCCC(=O)Nc3cccnc3)n2)cc1	1.1	6	x	x	x	x	-3	-4	15%	2.9
O=C(NC(=S)Nc1ccc(Oc2ccccc2)cc1)c1ccc(Cl)cc1	-0.5	-8	x	x	x	x	62*	-4	3%	-0.2
C/C(=N\NC(=O)CCC(=O)NCc1ccccc1)c1ccco1	u	-3	-0.4	22	24	6.7	x	-10	2%	x

Structural class, those above containing fluorine.
SMILES	Bfl-1 A1 inh	Beta apoptosis	MLL AF4-AF9 inh	rRNA inh HTS	rRNA inh HTS OD600	rRNA inh HTS RFP	T cruzi inh	Calb FLC	Vif A3G	RanGTP-Impb inh
O=c1c(Cc2c(F)cccc2Cl)c(O)ccn1CC1CCCO1 (stereo unspecified)	-0.3	-4	1.1	0	-3	-5.0	-12	-6	-7%	-3.0
C=CCN(CC(=O)NCc1ccc(F)cc1)C(=O)c1csnn1	0.5	-3	x	x	x	x	1	18	-1%	2.2
CCOC(=O)N1CCN(c2c(NCc3ccc(F)cc3)c(=O)c2=O)CC1	0.8	18	-2.5	-6	3	-0.6	6	-1	10%	2.8

Remaining list, next part:
SMILES	Bfl-1 A1 inh	Beta apoptosis	MLL AF4-AF9 inh	rRNA inh HTS	rRNA inh HTS OD600	rRNA inh HTS RFP	T cruzi inh	Calb FLC	Vif A3G	RanGTP-Impb inh
COc1ccccc1CP(=O)(c1ccccc1)c1ccccc1	u	-5	x	x	x	x	-11	-25	x	-1.0
Cc1cccc(-c2nc(CS(=O)CC(=O)NCCCSC3CCCCC3)c(C)o2)c1 (stereo unspecified)	0.3	-4	x	x	x	x	12	6	-6%&-6%	u
CCN(CC)C(=S)SCC(=O)c1c(C)[nH]c2ccccc12	-0.5	5	x	x	x	x	37	8	x	4.7
COc1ccc(N2CCN(C(=O)CNC(=O)Cn3c(C)cc4ccccc4c3=O)CC2)cc1	0.2	-7	x	x	x	x	-14	25	12%&3%	u
COC(=O)c1c(NC(=O)CSc2ncnc3c2cnn3-c2ccccc2Cl)sc2c1CCCC2	-1.2	7	x	x	x	x	22	-1	4%	0.9
CCC1CCCCN1C(=O)N[C@@H](CCSC)C(=O)OC (stereo partly specified)	0.6	1	x	x	x	x	-17	-2	-3%	-4.3
O=C(NNC(=O)c1ccccc1Cl)c1csc(N2CCOCC2)n1	-0.6	-2	-2.3	11	8	3.7	-6	4	0%	2.5
Cc1ccc(S(=O)(=O)N2CCOCC2)cc1C(=O)OCCOc1cccc(Cl)c1	1.2	3	-1.7	-4	-4	4.5	28	x	-4%	4.8
O=C(NCc1ccc(N2CCCC2=O)cc1)C1CCC(=O)N(Cc2ccccc2F)C1 (stereo unspecified)	-0.4	x	0.2	2	2	-1.6	3	1	-6%	-3.2
COC(=O)c1cn(NC(=O)c2cc(OC)c(OC)c(OC)c2)c(=O)c2ccccc12	-0.5	7	x	x	x	x	5	-6	7%	4.2
Cc1cccc(N(CC(=O)NCc2ccccc2)C(=O)Cn2nnc(-c3ccc(C)o3)n2)c1	-0.8	x	x	x	x	x	6	10	-1%	-2.1
CCOC(=O)C1CN(S(=O)(=O)c2ccccc2)c2cc(S(=O)(=O)CC)ccc2O1 (stereo unspecified)	-0.2	2	x	x	x	x	-9	-2	2%	u
COC(=O)c1c(NC(=O)/C=C/C(=O)O)sc(C)c1-c1ccc(C)c(C)c1	-0.6	4	x	x	x	x	-23	-5	x	1.2
CC(NS(=O)(=O)c1ccc(Br)cc1)C(=O)Nc1nc2ccccc2[nH]1 (stereo unspecified)	0.4	-8	7.7	-1	-3	-0.3	x	x	-21%	x
COc1ccc(C2(O)CCN(C(=O)NC3CCCCC3)CC2)cc1	1.5	-3	x	x	x	x	-5	11	16%	3.1
Cc1csc(CNC(=O)CC2C(=O)NCCN2Cc2ccc(F)cc2Cl)n1 (stereo unspecified)	-0.1	-9	-0.7	5	4	1.7	-19	-1	x	-1.7
CC(C)(C)NC(=O)CSc1nc2cccnc2n1C1CCCCC1	-0.2	3	-4.0	-6	-9	-4.0	10	2	1%	-1.2
O=C(NCCCN1CCOCC1)C1CC(=O)N(c2ccccc2)C1 (stereo unspecified)	0.5	0	-1.4	5	18	-1.0	-6	-24	x	8.2
CCN1C(=O)CSc2ccc(C(=O)NCCCN3CCOCC3)cc21	-0.2	-4	5.9	11	6	-7.5	-10	-1	2%	2.1
CC(C)Oc1ccc(C(=O)NC(=S)Nc2ccc(CN3CCOCC3)cc2)cc1	0.5	10	-0.6	3	1	3.6	22	6	-8%	x
O=C(Cc1ccc(Br)cc1)Nc1cccc(-c2cn3c(n2)SCC3)c1	-0.1	-4	4.1	-21*	-14*	2.4*	13	0	x	-6.8
CCOC(=O)C(C(=O)OCC)N(C#N)c1nc(SC)nc(N(C)C)n1	-1.1	-5	x	x	x	x	-5	-1	2%	1.7
CNS(=O)(=O)c1cccc2cccnc12	0.5	-2	x	x	x	x	-6	-3	28%	3.4
COc1ccccc1-c1noc(CCCC(=O)NC2CCCCC2)n1	-0.1	-4	1.2	3	10	2.9	20	-11	x	-2.0
O=C(O)[C@H]1CCCC[C@H]1C(=O)NCCNC(=O)[C@@H]1CCCC[C@@H]1C(=O)O	-0.2	2	x	x	x	x	0	31	-1%	-1.9
CCC(=O)c1ccc(OC(C)C(=O)NC2(C#N)CCCCC2)cc1 (stereo unspecified)	0.1	-5	-0.6	-6	-3	-2.1	2	18	x	u
Cc1nnc(SCC(=O)NCCC2=CCCCC2)[nH]c1=O	-0.2	-2	-1.8	8	8	-1.1	x	x	x	x
CSc1nc2nc(C(F)(F)F)cc(-c3ccccc3)n2n1	-0.2	-1	x	x	x	x	2	0	2%	3.2
CCC(CC)C(=O)Nc1cccc(C(=O)Nc2ccc(S(N)(=O)=O)cc2)c1	-0.2	x	-1.0	-6	-6	-3.9	-7	8	11%	1.8
COc1cccc(C2CC(c3ccccc3)=NN2S(=O)(=O)c2ccc(C)cc2)c1OC (stereo unspecified)	0.3	-14	1.9	11	3	9.6	9	x	-2%	x

Record cards, from the list above. Order of values: Bfl-1 A1 inh	Beta apoptosis	MLL AF4-AF9 inh	rRNA inh HTS	rRNA inh HTS OD600	rRNA inh HTS RFP	T cruzi inh	Calb FLC	Vif A3G	RanGTP-Impb inh
C/C(=N\NC(=O)CCC(=O)NCc1ccccc1)c1ccco1 across the screens: u	-3	-0.4	22	24	6.7	x	-10	2%	x
O=C(NCc1ccc(N2CCCC2=O)cc1)C1CCC(=O)N(Cc2ccccc2F)C1 (stereo unspecified) across the screens: -0.4	x	0.2	2	2	-1.6	3	1	-6%	-3.2

Bioassay records (PubChem BioAssay)
